TRPML1 agonist: qHTS for Agonists of the Human Mucolipin Transient Receptor Potential 1 (TRPML1). actives 0.12% (n = 410,000). AID 624414, 2012. activation, % (test concentration not listed). TRPML1-expressing cells, Ca2+ dye fluorescence, FDSS; host cell line not named in the record; reference of the full effect not given here; in the data active = activation above about 50%; inconclusive = about 30% to 50%; inactive = below about 30%; further: 0% is about no effect; the text of the record puts the active cut at 80%
Target sequence (Q9GZU1 whole entry, looked up): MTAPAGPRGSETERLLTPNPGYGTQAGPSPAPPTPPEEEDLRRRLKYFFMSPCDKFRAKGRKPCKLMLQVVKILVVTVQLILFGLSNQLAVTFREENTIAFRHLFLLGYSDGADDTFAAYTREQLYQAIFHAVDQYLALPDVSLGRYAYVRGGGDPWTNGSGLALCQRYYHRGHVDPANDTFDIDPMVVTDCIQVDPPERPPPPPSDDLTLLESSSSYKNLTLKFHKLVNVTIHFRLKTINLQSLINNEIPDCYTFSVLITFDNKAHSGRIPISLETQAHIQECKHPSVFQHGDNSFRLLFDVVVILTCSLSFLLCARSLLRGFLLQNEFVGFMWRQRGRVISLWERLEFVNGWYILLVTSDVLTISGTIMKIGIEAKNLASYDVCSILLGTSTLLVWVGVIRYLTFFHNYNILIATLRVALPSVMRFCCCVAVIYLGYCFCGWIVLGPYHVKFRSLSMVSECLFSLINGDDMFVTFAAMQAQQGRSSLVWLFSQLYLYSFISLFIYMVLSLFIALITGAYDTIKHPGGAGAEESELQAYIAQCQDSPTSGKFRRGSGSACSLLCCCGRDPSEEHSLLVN
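In this qHTS format, compounds were pin-transferred onto Ca8-dye-loaded TRPML1-DL cells induced with Tet overnight, and intracellular Ca2+ fluorescence was recorded kinetically for 110 s after a 10 s baseline. A subsequent 4uM final 54-4 (EC80) addition followed by a second 110 s read served as the antagonist phase.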
TRPML1 blocker: qHTS for Inhibitors of the Human Mucolipin Transient Receptor Potential 1 (TRPML1) | Mucolipin-1 (Homo sapiens), Q9GZU1 | AID 624415, 2012 | actives 0.02% (n = 390,000) | TRPML1-inducible cells, Ca2+ dye fluorescence, FDSS; hits give low values; inhibition of EC80 agonist-evoked calcium signal | activity change, negative = inhibition, % (no concentration beside the values); in the data active means activity change below about -50%; inconclusive means about -30% to -50%; inactive means above about -30%;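 further: stimulus is agonist 54-4 at its EC80 concentration; on the % scale 0 is the no-effect control and ±100 the full control effect; compound concentration not given in the record; the text of the record puts the active cut at -80%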
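Calcium fluorescence in TRPML1-DL cells induced overnight with Tet: a 110 s read after compound pin addition, then a 110 s antagonist read after challenge with 54-4 at 4 uM final (EC80).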
CtBP-E1A inh: qHTS Assay for Inhibitors of the CtBP/E1A Interaction; CtBP / adenovirus E1A interaction (AlphaScreen); AlphaScreen GST-E1A/His-CtBP binding, 1536-well; hits give low values; control for the full effect not named in the record; activity change, % (concentration not given with the values); actives 0.49% (n = 340,000); AID 651724, 2012; in the data active means activity change below about -65%; inconclusive means about -30% to -65%; inactive means above about -30%; further: on the % scale 0 is the no-effect control and ±100 the full control effect
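Steps: dispense buffer (Tris pH 8.0, NaCl 300 mM, TCEP 1 mM, BSA, Tween 20); add 5X protein mix (GST-E1A, His-CtBP, 125 nM each); pin 23 nL compound; 2 h at 37 °C, dark; add 5X beads (50 ug/mL); 1 h; read.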
TRPV1 PAM: HTS Assay for Compounds that Act as Potentiators of the Vanilloid Receptor 1. Transient receptor potential cation channel subfamily V member 1 (Homo sapiens), Q8NER1. TRPV1-expressing cells, Fluo-8 calcium influx, capsaicin EC20 potentiation; host cell line not named in the record; control for the full effect not named in the record. potentiation, % at 8.33 µM. actives 0.02% (n = 320,000). AID 540277, 2011; active means potentiation above 80%; inconclusive means 30% to 80%; inactive means below 30%; further: 0% is about no effect
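Fluo-8 calcium influx in TRPV1-expressing cells, kinetic read (ex 480/em 520 nm). Compound added and read 3 min for agonist activity, followed by capsaicin at EC20 final and 2 min further read for enhancement.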
Six1-Eya2 blk: qHTS Assay for Inhibitors of the Six1/Eya2 Interaction. Homeobox protein SIX1 (Homo sapiens) + Protein phosphatase EYA2 (Homo sapiens), …. AlphaScreen GST-Six1/His-Eya2 binding, biochemical; hits give low values; control for the full effect not named in the record. activity change, % (concentration not given with the values). actives 0.56% (n = 360,000); in the data active = activity change below about -65%; inconclusive = about -30% to -65%; inactive = above about -30%; further: on the % scale 0 is the no-effect control and ±100 the full control effect
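GST-Six1 + His-Eya2 (5X stock: 250/500 nM); Tris pH 8.0, 300 mM NaCl, 0.05% BSA, 0.02% Tween 20; GSH donor/Ni acceptor beads; 1 h 37 °C dark; AlphaScreen readout.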
D2 potentiator: Beta-Arrestin HTS for Positive Allosteric Modulators of the Human D2 Dopamine Receptor: Potentiators; actives 0.23% (n = 360,000); DiscoveRx D2 beta-arrestin cells, luminescence, 90 min; 100% = 57 uM dopamine signal; D(2) dopamine receptor (Homo sapiens), P14416; potentiation, % (no concentration beside the values); active = potentiation of 50% or more; inconclusive = 30% to 50%; inactive = 30% or less;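 further: compound concentration not given in the record; tested on top of an EC20 dose of dopamine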
Target sequence (P14416 whole entry, looked up): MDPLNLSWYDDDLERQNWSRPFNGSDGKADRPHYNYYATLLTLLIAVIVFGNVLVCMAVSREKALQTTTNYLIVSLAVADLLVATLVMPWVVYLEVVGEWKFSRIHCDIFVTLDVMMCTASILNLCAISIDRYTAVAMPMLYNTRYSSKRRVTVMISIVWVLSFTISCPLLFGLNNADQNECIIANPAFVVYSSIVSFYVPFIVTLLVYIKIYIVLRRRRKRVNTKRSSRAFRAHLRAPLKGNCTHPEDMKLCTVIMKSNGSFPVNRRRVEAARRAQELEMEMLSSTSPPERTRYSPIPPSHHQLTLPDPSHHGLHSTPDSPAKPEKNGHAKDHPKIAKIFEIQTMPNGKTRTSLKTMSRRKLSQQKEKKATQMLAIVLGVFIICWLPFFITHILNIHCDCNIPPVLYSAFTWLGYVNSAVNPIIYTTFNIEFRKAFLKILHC
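PathHunter D2 cells, attached overnight at 37 deg C, received compound in DMSO plus dopamine at EC20 (50 nM final) for 90 min at 37 deg C. Beta-arrestin recruitment was read as luminescence after 1 h with detection reagent at ambient temperature.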
The depositor's hits bear a star; . = not tested or not shown; & = joins results of further samples.

SMILES | TRPML1 agonist | TRPML1 blocker | CtBP-E1A inh | TRPV1 PAM | Six1-Eya2 blk | D2 potentiator
CCCCN(CC(=O)NC1CCCC1)C(=O)C(=O)Nc1ccc2c(c1)OCCO2 | -1.1 | 24 | 23 | 8 | 9 | -14
CN1CCCC1=Nc1c2c(nc3ccccc13)N(C)CC2 | -0.6 | 4 | 8 | 3 | 0 | -2
O=C(COC(=O)Cc1cccc(C(F)(F)F)c1)Nc1ccc2[nH]c(=O)[nH]c2c1 | -0.5 | 0 | -2 | 17 | -1 | -13
C[C@H](CO)N1C[C@H](C)[C@@H](CN(C)Cc2ccncc2)Oc2c(NS(=O)(=O)c3cn(C)cn3)cccc2C1=O | -0.4 | -2 | 1 | . | 0 | -1
COc1ccccc1-n1c(=O)oc2ccc(Cl)cc2c1=O | 2.2 | 9 | -3 | 5 | 1 | 10
Cc1ccc(OCCC(=O)Nc2ccc(S(=O)(=O)N3CCCC3)cc2)cc1 | 0.9 | 4 | -1 | -11 | -1 | -1
COc1ccccc1NC(=O)CC1C(=O)NCCN1C(=O)Nc1ccc(Cl)c(Cl)c1 (stereo unspecified) | 1.9 | -22 | 0 | 0 | 1 | -13
C/C(=N\NC(=S)NCc1ccccc1)c1ccc(C#N)cc1 | 2.1 | -9 | 5 | 4 | -3 | 3
CN(CC(=O)Nc1ccc(F)cc1)C(=O)COC(=O)/C=C/c1cccs1 | -0.4 | -4 | 3 | -2 | -3 | 3
O=C(CCC(=O)OCC(=O)c1ccc(-c2ccccc2)cc1)Nc1cccc(Cl)c1 | 1.5 | 0 | -7 | 5 | 2 | -17
O=C(CN1CCCCCC1)Nc1ccccc1F | 0.2 | -6 | 14 | 7 | 12 | -7
O=[N+]([O-])c1cccc(S(=O)(=O)N2CCCCC2)c1 | -0.6 | -2 | . | 8 | 0 | 2
CCOC(=O)N1CCN(c2nc3ccccc3n3cnnc23)CC1 | -0.9 | -10 | 4 | 1 | 1 | -2
CSCCC(NC(=O)c1ccccc1Br)C(=O)NNC(=O)c1ccncc1 (stereo unspecified) | -0.2 | 10 | 0 | 4 | -2 | -3
Cc1ccc(CNC(=O)NC2CCCCC2)cc1 | 0.2 | -10 | 1 | -20 | 8 | -5
CC(C#N)Sc1nnc(-c2ccccc2F)n1C1CC1 (stereo unspecified) | -0.4 | 44 | -5 | -5 | -5 | 0
Cc1ccccc1CNCCCSc1ncccn1 | -0.9 | -13 | 1 | -1 | 5 | -8
CCn1c(CN2CCN(c3ccc(OC)cc3)CC2)nc2cc(S(=O)(=O)N(C)C)ccc21 | 0.4 | 1 | -14 | 6 | -7 | -10
N=C1C(c2ccc(Br)cc2)=C(O)C2CCc3ccccc3N12 (stereo unspecified) | -0.4 | 10 | -1 | 2 | 1 | -2
O=C(NCc1ccccc1C(F)(F)F)c1cccc2c1C(=O)c1ccc(N3CCOCC3)cc1S2(=O)=O | 14 | 18 | 0 | . | 2 | -3
CC(=O)C(=Cc1ccc(Cl)cc1)C(=O)c1ccccc1 | -0.5 | . | 4 | . | 1 | -5
CCCOc1ccc(C(=O)N2CCN(c3ccc(NC(=O)CC)cc3Cl)CC2)cc1 | -0.5 | 6 | 2 | 0 | -3 | 4
CC(NC(=O)Cc1ccc(NS(=O)(=O)c2cccc(C(F)(F)F)c2)cc1)c1ccccn1 (stereo unspecified) | -0.6 | -4 | -7 | 4 | 10 | -1
O=C(NCc1ccccc1)Nc1cccn(Cc2ccccc2)c1=O | 0.2 | 2 | -15 | -1 | -5 | -7
CCOC(=O)C1=C(C)NC(c2cccs2)C(=O)N1 (stereo unspecified) | -0.6 | 19 | 5 | -2 | -1 | -3
Cc1cc(NC(=O)CSc2ncc(C(F)(F)F)cc2Cl)no1 | -0.1 | 10 | -2 | . | 1 | -1
O=C(Cc1cccc(NC(=O)C2CCN(S(=O)(=O)c3cccc([N+](=O)[O-])c3)CC2)c1)Nc1cccc(C(=O)N2CCCCC2)c1 | -0.3 | -6 | -1 | . | -4 | -1
COc1ccc(OCc2nn[nH]n2)cc1 | -0.2 | 13 | . | 1 | 2 | -28
CC(C)NC(=O)Cc1ccc(Br)cc1 | 0.2 | -9 | 2 | -30 | -2 | 6
O=C(c1ccccc1)N1CCC(c2nc3c(nnn3Cc3ccco3)c(=O)[nH]2)CC1 | -0.2 | 5 | -23 | . | 0 | 5

The closing two entries of the part above lead into the next:
SMILES | TRPML1 agonist | TRPML1 blocker | CtBP-E1A inh | TRPV1 PAM | Six1-Eya2 blk | D2 potentiator
CC(C)NC(=O)Cc1ccc(Br)cc1 | 0.2 | -9 | 2 | -30 | -2 | 6
O=C(c1ccccc1)N1CCC(c2nc3c(nnn3Cc3ccco3)c(=O)[nH]2)CC1 | -0.2 | 5 | -23 | . | 0 | 5
COc1ccc(N2CCN(CCCn3ccc(NC(=O)OCc4ccccc4)nc3=O)CC2)cc1 | -0.9 | 16 | -10 | . | -23 | 0
CC(C)NC(=O)c1ccccc1NC(=O)C1COc2ccccc2O1 (stereo unspecified) | 3.2 | 14 | 6 | 9 | 1 | -25
CCCC(c1nnnn1C1CCCC1)N1CCN(c2ccccc2F)CC1 (stereo unspecified) | -0.7 | 15 | -1 | -12 | -2 | -22
CC(/C=N/NC(=O)Cc1cccs1)=C\c1ccccc1 | 1.8 | 12 | 1 | -10 | -2 | -18
O=C(CSc1nnc(NC(=O)c2ccco2)s1)NC1CCCC1 | 1.2 | 24 | 1 | 11 | 4 | -13
C[C@H](CO)N1C[C@H](C)[C@@H](CN(C)C(=O)Nc2ccc(C(F)(F)F)cc2)Oc2c(NC(=O)Nc3ccc(C(F)(F)F)cc3)cccc2C1=O | 1.5 | -2 | 6 | . | -2 | 27
c1ccc(-c2csc(CN3CCCCC3)n2)cc1 | -0.6 | 15 | 0 | . | -2 | -18
O=C(NCc1ccc2c(c1)OCO2)C1CCN(S(=O)(=O)N2CCOCC2)CC1 | -0.6 | 4 | 5 | 2 | 0 | 10
CN(C)C(=O)c1nc2ccc(Cl)cn2c1CNCc1ccccc1OC(F)(F)F | 1.1 | 6 | 0 | -23 | 8 | -2
COc1ccc(Cl)cc1-c1cc(C(=O)Nc2ccc(C(C)(C)C)cc2)[nH]n1 | -0.3 | . | 1 | . | -2 | 0
Cn1cnc2cc(NC(=O)c3ccc(Cl)cc3)ccc21 | -0.8 | 22 | 0 | 5 | 0 | -5
CCOc1ccc(Nc2nc(NCC3CCCO3)c3ccccc3n2)cc1 (stereo unspecified) | -0.2 | -10 | -27 | -12 | -13 | -12
CCOCCCNC(=O)c1ccc2c(c1)ncn2-c1cccc(C)c1 | 0.6 | -3 | 6 | -3 | 13 | -1
COc1cccc(CN(C)C(=O)c2ccc(S(=O)(=O)Nc3ccccc3C)cc2)c1OC | -0.7 | 0 | 3 | . | -9 | -8
COc1ccc(C2=CC(=O)C[C@H](COCc3ccccc3)N(C(=O)OC(C)(C)C)O2)cc1 | 1.9 | -18 | -18 | . | -9 | -8
COCCN1Cc2cc3cc(C)ccc3nc2SC1=Nc1cccc(OC)c1 | 2.8 | 13 | -4 | 0 | -3 | -18
O=C(NNC(=S)Nc1ccccc1)NNC(=S)Nc1ccccc1 | 0.2 | 11 | 1 | 11 | 5 | -11
COc1ccc2nc(NC(=O)C3CCN(C(=O)c4ccco4)CC3)sc2c1 | 0.6 | 40 | -1 | -1 | -7 | -2
CC1CCCCN1S(=O)(=O)c1ccc(C(=O)N(CCCN(C)C)c2nc3cc4c(cc3s2)OCO4)cc1 (stereo unspecified) | 0.3 | -9 | -14 | 1 | -26 | -24
CCCc1c(O)nc(SCC(=O)O)[nH]c1=O | -0.1 | 8 | . | -1 | 0 | -10
COc1ccc(S(=O)(=O)Nc2c(C(=O)O)[nH]c3ccccc23)c(OC)c1 | -1.2 | -3 | 0 | 0 | -1 | -8
C/C=C/C(=O)N1CC2(CC(c3cccc(NC(=O)CC(c4ccccc4)c4ccccc4)c3)=NO2)C[C@H]1C(N)=O (stereo partly specified) | -0.6 | -1 | 6 | 30 | 2 | -1
CCCCN(C(=O)c1ccco1)c1c(N)n(CCC)c(=O)[nH]c1=O | 0.3 | -3 | -19 | 0 | 1 | -1
CCOC(=O)c1c(-c2ccc(C)o2)csc1NC(=O)CN1CCOCC1 | 0.8 | 1 | -6 | -20 | -18 | -13
CCCNC(=O)C(Cc1cccc(OC)c1)NC(=O)c1ccc(C#N)cc1 (stereo unspecified) | -0.6 | 9 | 5 | 7 | 1 | -12
c1ccc(OCCNc2ccn3nc(-c4ccccc4)cc3n2)cc1 | 0.0 | 8 | -23 | . | -8 | 0
COc1ccc(C(=O)NCc2nnc(SCC(=O)N3CCC(C)CC3)o2)cc1 | -0.4 | -3 | -6 | -2 | -3 | -17
O=C(NC1CC(=O)N(c2ccc(Cl)cc2)C1)N1CCN(C(=O)c2ccco2)CC1 (stereo unspecified) | -0.1 | 25 | 6 | -2 | 3 | 3
CCOC(=O)c1ccc(NC(=O)C2=C(C)Nc3nc(CCCO)nn3C2c2ccc(OC)cc2)cc1 (stereo unspecified) | -0.9&-0.5 | -5&1 | 2 | 6 | 2 | 19
CCN1CCN(S(=O)(=O)c2ccc(Cl)c(C(=O)N(C)Cc3cccc(OC)c3)c2)CC1 | 1.9 | -14 | 0 | -4 | 0 | -52

Full records as entered above. Order of screens: TRPML1 agonist, TRPML1 blocker, CtBP-E1A inh, TRPV1 PAM, Six1-Eya2 blk, D2 potentiator
`c1ccc(OCCNc2ccn3nc(-c4ccccc4)cc3n2)cc1` is listed with 0.0, 8, -23, ., -8, 0
`CCOC(=O)c1c(-c2ccc(C)o2)csc1NC(=O)CN1CCOCC1` is listed with 0.8, 1, -6, -20, -18, -13
`CCCCN(C(=O)c1ccco1)c1c(N)n(CCC)c(=O)[nH]c1=O` is listed with 0.3, -3, -19, 0, 1, -1
`CCOC(=O)c1ccc(NC(=O)C2=C(C)Nc3nc(CCCO)nn3C2c2ccc(OC)cc2)cc1` (stereo unspecified) is listed with -0.9&-0.5, -5&1, 2, 6, 2, 19
`O=C(NC1CC(=O)N(c2ccc(Cl)cc2)C1)N1CCN(C(=O)c2ccco2)CC1` (stereo unspecified) is listed with -0.1, 25, 6, -2, 3, 3

Next section.
SMILES | TRPML1 agonist | TRPML1 blocker | CtBP-E1A inh | TRPV1 PAM | Six1-Eya2 blk | D2 potentiator
CCOC(=O)C1(C/C(C)=N/NC(N)=O)CC(C)(C)OC1=O (stereo unspecified) | -0.2 | -13 | 4 | -2 | -1 | -3
O=S(=O)(NC(=S)NC1CCCCC1)c1ccc(Cl)cc1 | 0.3 | -7 | . | 7 | -6 | -33
COc1cc(NC(=O)CSc2ncnc3scc(-c4ccccc4)c23)c(C(=O)O)cc1OC | 1.3 | -9 | 3 | 6 | 5 | 0
CC1(CC(=O)N/N=C/c2cc([N+](=O)[O-])c(O)cc2O)OCCO1 | -0.5 | 4 | . | 4 | -89* | -13

Assay outcomes from PubChem.
